Compound activity (PubChem BioAssay)
StopGo RLuc: FMDV 2A StopGo reporter, Renilla signal; HEK cells with a luciferase reporter of 2A StopGo recoding; Potency, µM (doses to about 57.5 µM), inactives show at the highest dose signal change, negative = less light; 120,000 tested, 0.32% active; AID 1745857; active means well fitted falling curve with a large enough effect; inconclusive means small, poorly fitted or top-dose-only effect; inactive means no such curve, though single readings can be large or run the other way; also: nearly all actives have a fitted effect of over 55% in size; overnight with compound
2A firefly: lowers the firefly signal of an FMDV 2A StopGo reporter; HEK cells with a luciferase reporter of 2A StopGo recoding; Potency, µM (series often up to 57.5 µM), inactives show top-dose signal change, negative = less light; 120,000 tested, 0.23% active; AID 1745856; active = well fitted falling curve with a large enough effect; inconclusive = small, poorly fitted or top-dose-only effect; inactive = no such curve, though single readings can be large or run the other way; also: nearly all actives have a fitted effect of over 60% in size; overnight with compound
* hit, by the source's call; ? = inconclusive; & = joins results of further samples; [ ] = another dose, or the depositor's remark. % is scaled to controls: 0 for no effect and ±100 for the full control effect; potency is read from the fitted curve at half-maximal effect.

SMILES	StopGo RLuc	2A firefly
COc1cc(OC)cc(OC(C)C(=O)Nc2ccc(F)cc2)c1 (stereo not given)	-4%	6%
CCOc1cc(-c2ccc(C)cc2)nc2ccc(C(=O)NCC(C)O)cc12 (stereo not given)	64%[activator]	24%
COc1cc(OC)c(OC)cc1/C=C(/C#N)c1ccc(Cl)cc1	37%[activator]	16%
Cc1ccc2c(c1)CC(C)N2S(=O)(=O)c1nnc(NC(=O)CC(C)C)s1 (stereo not given)	36%[activator]	4%
Cc1ccc(NC(=O)Cn2c(=O)n(-c3ccccc3)c(=O)c3ccc(C(=O)NCc4ccc5c(c4)OCO5)cc32)cc1	8%	0%
Cc1ccc(S(=O)(=O)N2CCN(C(=O)NCC3CN(CC(C)C)CCO3)CC2)cc1C (stereo not given)	-9%	-9%
Cc1cc(C(=O)O)ccc1-c1ccc(C=O)o1	-2%	38%[activator]
Cc1nc(N2CCC(C(=O)Nc3cccc(Br)c3)CC2)c2c(C)c(C)oc2n1	?	18µM*
O=C(CCC1N=C2c3ccccc3N=C(SCc3ccc(Cl)cc3)N2C1=O)NCc1cccs1 (stereo not given)	6%	-23%
COc1ccc(/C=N/OCC(=O)Nc2cccc(C(F)(F)F)c2)cc1	-2%	0%
NC(=O)CSc1nc2c(oc3ccccc32)c(=O)n1-c1ccccc1F	0%	-10%
COc1ccc(-c2nc(SCc3cc(=O)c4cc(C)ccc4[nH]3)n[nH]2)cc1	?	-16%&0%
CCn1cnc2c1c(=O)n(CC(=O)N(C)Cc1cccs1)c(=O)n2Cc1ccccc1	7%	8%
COc1ccc(CCNC(=O)CCCn2c(=O)c3cccn3c3cccnc32)cc1OC	-7%	-15%
Fc1ccc(NN=C2c3ccccc3-c3ccccc32)c(F)c1	7%	106%[activator]
Cc1ccc(CCNC(=O)c2cc(-c3ccc(Cl)cc3)n[nH]2)cc1	-5%	0%
COc1ccc(CN2CCN(C(=O)c3cc4c(s3)CCCC4)CC2)cc1OC	?	?
O=C(Nc1nnc(S(=O)(=O)N2CCOCC2)s1)c1ccc(F)cc1	-8%	0%
O=C1/C(=C/c2ccc3ccccc3c2)CCC1C1CCCC1 (stereo not given)	19%	85%[activator]
CC(NC(=O)CCc1c[nH]c2ccccc12)c1ccc(Cl)cc1 (stereo not given)	7%	168%[activator]
COc1ccc(NC(=O)c2cn(CC(C)C)c(=O)c3cc(OC)c(OC)cc23)cc1Cl	-4%	-10%
O=C(CC1SCCNC1=O)Nc1ccc(F)c(Cl)c1 (stereo not given)	-2%	78%[activator]
Cc1ccc(NC(=O)Cn2c(=O)n(Cc3nc(-c4ccccc4)no3)c(=O)c3ccccc32)cc1C	8%&-21%	-3%&-16%
CC(Nc1ccc(C(F)(F)F)cc1[N+](=O)[O-])c1ccccn1 (stereo not given)	-10%[1.06 µM]	129%[activator]
COC(=O)c1ccc(COC(=O)C2(c3ccccc3)CC2)cc1	9%	112%[activator]

Structural class: the entries above containing a Cl atom (six)
SMILES	StopGo RLuc	2A firefly
COc1cc(OC)c(OC)cc1/C=C(/C#N)c1ccc(Cl)cc1	37%[activator]	16%
O=C(CCC1N=C2c3ccccc3N=C(SCc3ccc(Cl)cc3)N2C1=O)NCc1cccs1 (stereo not given)	6%	-23%
Cc1ccc(CCNC(=O)c2cc(-c3ccc(Cl)cc3)n[nH]2)cc1	-5%	0%
CC(NC(=O)CCc1c[nH]c2ccccc12)c1ccc(Cl)cc1 (stereo not given)	7%	168%[activator]
COc1ccc(NC(=O)c2cn(CC(C)C)c(=O)c3cc(OC)c(OC)cc23)cc1Cl	-4%	-10%
O=C(CC1SCCNC1=O)Nc1ccc(F)c(Cl)c1 (stereo not given)	-2%	78%[activator]

The list continues:
SMILES	StopGo RLuc	2A firefly
O=C(O)CSCc1ccccn1	17%	0%
CC(=O)Nc1c(C)noc1/C=C\c1ccc(C)c(S(=O)(=O)Nc2ccc(C(C)C)cc2)c1	130%[activator]	?
CCCCNC(=O)CCc1c(C)nc2c(c(C)nn2-c2ccccc2)c1C	0%	1%
O=C(NCC(=O)N1CCc2ccccc21)NCc1ccccc1	1%	0%
Cc1ccc(-c2cc(C(=O)Nc3ccc(SC(F)F)cc3)no2)cc1F	-10%	-9%
CN1CCN(S(=O)(=O)c2ccc(N(C)CCOc3cccc(Cl)c3)nc2)CC1	-1%	-11%
CC(C)(C)CC(C)(C)c1ccc(OCC(=O)Nc2ccc(S(=O)(=O)Nc3ncccn3)cc2)cc1	-7%	-22%
CCCCNC(=O)CCC(=O)NCc1ccc(F)cc1	4%	-5%
COc1ccc2c(CN3CCC(C)CC3)cc(=O)oc2c1	19%	157%[activator]
N#C/C(=C\c1ccc(-c2ccccc2Cl)o1)c1ccc(Cl)cc1	0%	6%
CC(C)N1CCN(c2oc(C3CC3)nc2C#N)CC1	-7%	4%
Cc1cccc(C(=O)Nc2ccc(OCc3cc(=O)n4c5c(sc4n3)CCCC5)cc2)c1	-10%	-16%
COc1ccc(OCc2nc(-c3ccc(-n4cccc4)cc3)no2)cc1	12%	0%
CCn1ncc2c(C(=O)Nc3cccc(OC)c3)cc(-c3cccs3)nc21	6%	-16%
Cn1c(=O)c2c(nc(Nc3ccc(Cl)c(Cl)c3)n2CC(=O)O)n(C)c1=O	6%	-13%
C#Cc1cccc(NC(=O)CCc2ccccc2O)c1	5%	111%[activator]
CCc1cccc2c(/C=C(/C#N)c3nc4cc(C)c(C)cc4[nH]3)c[nH]c12	14%	15%
Cc1oc(-c2ccccc2)nc1CCC(=O)c1ccc(CC2SC(=O)NC2=O)cc1 (stereo not given)	0%	-5%[11.5 µM]
CCC(=O)Oc1ccc2cc(-c3ccccc3)c(=O)oc2c1	-1%	0%
COC(=O)COc1ccc2c(c1)O/C(=C\C1=Cc3ccccc3OC1C)C2=O (stereo not given)	-6%	-11%
COc1ccc(CC(=O)NCCS(=O)(=O)N2CCN(c3ccc(F)cc3)CC2)cc1OC	1%	6%
Cn1nc(C(=O)N2CCCN(Cc3ccc(C(F)(F)F)cc3)CC2)c2ccccc2c1=O	?	?
Cc1oc(-c2ccccc2)nc1C(=O)OCC(=O)NCc1ccc(F)cc1	7%	19%
CCC(CC)C(=O)Nc1ccccc1C(C)CC (stereo not given)	6%	8%
Cc1cccc(OC(C)C(=O)Nc2cc(-c3ccccc3)no2)c1C (stereo not given)	17%	74%[activator]

Random excerpt: 2 compounds from above
SMILES	StopGo RLuc	2A firefly
CCC(CC)C(=O)Nc1ccccc1C(C)CC (stereo not given)	6%	8%
COc1ccc2c(CN3CCC(C)CC3)cc(=O)oc2c1	19%	157%[activator]

Shown with two lines to a compound: entries from further up
Value order: StopGo RLuc	2A firefly
> Cc1ccc(-c2cc(C(=O)Nc3ccc(SC(F)F)cc3)no2)cc1F
    -10%	-9%
> CN1CCN(S(=O)(=O)c2ccc(N(C)CCOc3cccc(Cl)c3)nc2)CC1
    -1%	-11%

(list continues)
SMILES	StopGo RLuc	2A firefly
Cc1ccc2c(=O)cc(C(=O)Nc3nc4ccc(Cl)cc4s3)oc2c1C	-3%	-10%
Cc1ccc(NC(=O)c2cnc(N3CCCCC3)c3ccccc23)c(C)c1	-14%	-20%
COc1ccc(CCNc2nc3ccc(Cl)cc3n3cnnc23)cc1OC	2%	31%[activator]
O=C(CCc1c[nH]c2ccccc12)NCCC12CC3CC(CC(C3)C1)C2	-3%	5%
CCCS(=O)(=O)NCc1nnnn1-c1ccc(OCC)cc1	10%	2%
CNC(=O)c1ccc(CN(C(=O)c2ccsc2)C2CC2)cc1	15%	18%
Cc1ccc(Cl)cc1NC(=O)CSc1ccc(C(=O)O)cn1	3%	2%
O=S(=O)(c1ccccc1)c1nc(-c2ccccc2Cl)oc1N1CCCCCC1	83%[activator]	4%
COc1ccc(-c2nc(-c3ccccc3)c(-c3ccccc3)[nH]2)cc1Br	-10%	-6%
CC(=O)OC1CC(OC2C(O)CC(OC3C(O)CC(OC4CC(O)C5(C)C(CC[C@@H]6[C@@H]5CCC5(C)C(C7=CC(=O)OC7)CCC65O)C4)OC3C)OC2C)OC(C)C1O (stereo not given in full)	0.89µM*	0.56µM*
COc1ccc(N2CCN(C(=O)c3cc4c(=O)n(Cc5cccs5)ccc4nc3C)CC2)cc1	-6%	?
N#C/C(=C\c1cn(CC(=O)NCc2ccco2)c2ccccc12)C(=O)NCc1ccco1	-26%	-23%
Clc1ccccc1-c1nnc(SCc2nc(-c3ccccc3)no2)n1-c1ccccc1	?	?
COc1ccc2c(c1)c(=O)c(C(=O)c1ccccc1)cn2CC(=O)Nc1ccc2c(c1)OCCO2	-11%	-12%
Cc1ccc2nc(Nc3cccc(C(F)(F)F)c3)c3nnnn3c2c1	5%	-27%
CC(=O)N1c2ccccc2CC1C(=O)N1CCN(c2cccc(Cl)c2)CC1 (stereo not given)	-13%	-20%
COc1ccccc1Nc1nn2c(=O)c3ccc(C(=O)NC(C)c4ccccc4)cc3nc2s1 (stereo not given)	2%	-2%
CC1CCC2(CC1)N=C(c1cccc(F)c1)C(=S)N2 (stereo not given)	104%[activator]	0%
CCc1ccccc1NC(=O)c1cc(-c2ccc3c(c2)OCO3)on1	6%	40%[activator]
CC1CCN(C(CNCC(O)COc2ccccc2)c2cccs2)CC1 (stereo not given)	-4%	-5%
Cc1sc2ncnc(N3CCOCC3)c2c1-c1ccccc1	?	?
Cc1cc(Cl)ccc1NS(=O)(=O)c1ccc2c(c1)CC(C)N2C(=O)C1CCC1 (stereo not given)	?	?
COc1cc(S(=O)(=O)Nc2ccccc2OC)ccc1NC(C)=O	73%[activator]	0%
CCCn1c2ccccc2c2cnn(CC(=O)N3CCC(C(=O)OCC)CC3)c(=O)c21	?	?
CCOc1ccc(CCNCc2c(C(=O)O)c(C)n(Cc3ccccc3F)c2C)cc1	-18%	-25%
Next part:
SMILES	StopGo RLuc	2A firefly
O=C(Nc1ccc(F)cc1)OCc1cn(Cc2cccc(Cl)c2)nn1	19%	15%
CC(C)c1ccc(NC(=O)CN(C)S(=O)(=O)c2ccc3c(c2)c(=O)n(C)c(=O)n3C)cc1	-14%	-23%
Cc1oc2ncn(CC(C)C)c(=O)c2c1C(=O)NCCCN1CCCCC1	-21%	-11%
COc1ccc(OC)c(CNC(=O)CCCn2ccc3cc(S(=O)(=O)N4CCCC4)ccc32)c1	-16%	?
COc1ccc(NC(=O)N2CCN(c3ccc(Cl)cc3)CC2)cc1OC	4%	3%
O=C1CC(C(=O)Nc2cccc(Cl)c2)c2c(nc(N3CCCC3)[nH]c2=O)N1 (stereo not given)	-11%	86%[activator]
O=C(NCc1cccnc1)C(=O)c1cn(CC(=O)N2CCOCC2)c2ccccc12	-19%	-6%
Cc1nc2ccccc2nc1SCC(=O)Nc1ccccc1C(F)(F)F	?	?
CCOP(=O)(OCC)c1nc(Cc2ccccc2)oc1NCc1ccco1	7%	4%
CCCc1nnc2sc(-c3cc(OC)c(OC)c(OC)c3)nn12	57%[activator]	34%[activator]
O=C(Nc1ccc(OC2CCCC2)cc1)c1ccncc1	5µM*	-25%
Cc1cccc(-c2cc(C(=O)O)c3cc(C)ccc3n2)c1	?	57%[activator]
CCN(CC)S(=O)(=O)c1ccc(N2CCCC2)c(NS(=O)(=O)c2ccc3ccccc3c2)c1	0%	-2%
O=C(CCS(=O)(=O)c1nc(-c2cccs2)cc(C(F)(F)F)n1)Nc1cccc(O)c1	-6%	?
CC(C)OCCn1c(Br)nc2c(=O)n(C)c(=O)n(C)c21	5%	9%
Clc1ccc(Nc2c(-c3ccccc3Cl)nc3ccc(Cl)cn23)cc1	12%	-7%
CC(C)c1ccc(NC(=O)C2CC(=O)N(C(C)(C)C)C2)cc1 (stereo not given)	7%	33%[activator]
Cc1ccccc1CNC(=O)c1c(C)oc2c1C1=NCCN1C=N2	-15%	-7%
COc1cc(CNc2ccc3c(c2)ncn3C(C)C)cc(OC)c1OC	-10%	15%
O=C(CCN1C(=O)c2ccccc2Sc2ncccc21)Nc1ccc(F)cc1	-4%	-7%
O=C(CN1CCN(c2ccc(F)cc2)CC1)NC1CCS(=O)(=O)C1 (stereo not given)	-8%	-1%
CCNC(=O)N(C)[C@H]1C[C@H]2c3[nH]c4cccc(-c5ccc6c(c5)OCO6)c4c3CCN2C[C@H]1[C@H](C)O	-10%	-7%
CCOC(=O)c1cnc2ccc(OCC)cc2c1NCCc1ccc(OC)c(OC)c1	-14%	-18%
COC(=O)Cc1c(C)c2ccc(OCc3cccc(Cl)c3)cc2oc1=O	30%	206%[activator]
COc1ccc(OC)c(-c2cc(C(=O)Nc3c(C)nn(Cc4ccccc4Cl)c3C)no2)c1	36%[activator]	-10%
(cont.)
SMILES	StopGo RLuc	2A firefly
Cc1ccccc1NC(=O)CSc1nc(-c2ccc(F)cc2)nc2c1Cc1ccccc1O2	-10%	-12%
CCc1cccc(C)c1NC(=O)c1cc(C)nc2c1c(C)nn2-c1cccc(Cl)c1C	-6%	0%
CC(C)c1ccc(S(=O)(=O)N2CCN(C(=O)CSc3nnnn3C3CCCC3)CC2)cc1	-4%	-5%
O=c1c2ccccc2n(Cc2c(F)cccc2Cl)c(=O)n1CCc1ccccc1	1%	3%
Cn1c(SCc2coc(-c3cccs3)n2)nnc1-c1ccccc1	22%	0%
COc1ccc(Nc2ncc(C(=O)Nc3ccc(F)cc3F)c3ccccc23)cc1	2%	9%
Cc1nc(-c2ccc(S(=O)(=O)Nc3ccc(Cl)c(C(F)(F)F)c3)cc2)co1	440%[activator]	68%[activator]
COc1cccc(-c2ocnc2C(=O)Nc2ccc(C(C)C)cc2)c1	-1%	55%[activator]
Cc1c(Cl)cccc1NC(=O)c1ccc(NC(=O)N2CCSc3ncccc32)cc1	-6%	134%[activator]
COc1ccccc1N1C(=O)NC(=O)C2(Cc3cc(C)ccc3N(C)C2)C1=O (stereo not given)	-16%	-2%
O=C(NCCCN1CCOCC1)c1cc(-c2ccc(Cl)s2)nc2ccccc12	0%	-5%

Only part of the results is shown, so the mix of outcomes need not match the whole.
